Compound activity deposited in PubChem by National Center for Advancing Translational Sciences (NCATS).
HSD17B inh = blocks hydroxysteroid 17-beta dehydrogenase activity; Q99714; recombinant HSD17B10, NADH fluorescence kinetic; many of its hits are not listed in these tables; Potency, µM (titrated, usually from 57.1 µM), without a hit: at the top dose activity change, negative = inhibition, usual class: inhibitors; actives 7.6% (n = 75,000); AID 893; active = well fitted inhibition curve with a large enough effect; inconclusive = small, poorly fitted or top-dose-only effect; inactive = no such curve, though single readings can be large or run the other way;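 note: the protocol describes HADH2 (HSD17B10) and not the HSD17B4 of the title; nearly all actives have a fitted effect of over 70% in size; most hits overshoot -100% by far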
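His-tagged E. coli-expressed HADH2 at 20 nM in 100 mM Tris-HCl pH 9.0 with 0.01 % Tween-20, preincubated 15 min with compound at room temperature. Reaction with 1 mM NAD+ and 90 uM beta-hydroxybutyryl coenzyme A; NADH fluorescence (360/450 nm) read kinetically over 4 min, last minus first point.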
* hit, by the source's call; ? = inconclusive; & = joins results of further samples; [ ] = dose if it differs, or a comment. % is set by controls: 0 for no effect and ±100 for the full control effect; potency is the fitted concentration of half-maximal effect.

SMILES	HSD17B inh
C=CCn1c(=O)/c(=C\c2ccsc2)s/c1=C(/C#N)C(=O)NCCN1CCOCC1	0%
O=C(NC1CCCc2ccccc21)C1CCN(c2c(N3CCCC3)c(=O)c2=O)CC1 (stereo not drawn)	3%
O=C(Nc1ccc(-c2nnc(-c3ccccc3)o2)cc1)C1CCCO1 (stereo not drawn)	20µM*
N#Cc1c(NC(=O)CCN2C(=O)c3ccccc3C2=O)oc(-c2ccccc2)c1-c1ccccc1	1%
COC(=O)CSc1nnnn1-c1cccc2ccccc12	4%
CCS(=O)(=O)NCc1csc(C)n1	5%
CC(C)(C)n1ncc2c(=O)n(CC(=O)c3ccccc3)cnc21	-2%
COc1cccc2c1OC1(C)CC2/C(=C(\C)O)C(=O)N1 (stereo not drawn)	17%
O=C1Nc2ccccc2OC1CC(=O)N1CCN(c2cccc(C(F)(F)F)c2)CC1 (stereo not drawn)	-17%
O=S(=O)(c1ccc(F)cc1)N1CCN(c2ncnc3c2cnn3-c2ccccc2)CC1	25µM*
CCOC(=O)C1(C(F)(F)F)N=C(c2cccnc2)OC(N2CCOCC2)=N1 (stereo not drawn)	8%
COc1ccc(-n2c(SCC(=O)N3CCCC3)nc3c([nH]c4ccccc43)c2=O)cc1	-3%
COc1ccc(C)cc1NC(=O)CSc1nnc(COc2ccc(C)cc2)n1Cc1ccco1	-8%
CCOC(=O)N1CCC(NC(=O)Cn2ncc3ccccc32)CC1	4%
O=C(Nc1ccccc1F)N(CCCN1CCOCC1)Cc1cc2cc3c(cc2[nH]c1=O)OCCO3	25µM*
CC1CCc2c(sc(NC(=O)c3noc4c3CCCC4)c2C(N)=O)C1 (stereo not drawn)	-3%
Cc1ccc2c(c1)nnn2C1CCN(C(=O)NC23CC4CC(CC(C4)C2)C3)CC1	-3%
COC(=O)CSc1nnc(CNC(=O)Cc2ccccc2)n1C	6%
COC(=O)c1[nH]c2cccc(Cl)c2c1NC(=O)CN1CCCCC1C (stereo not drawn)	?
Cc1ccc(S(=O)(=O)N2CCCCC2)cc1C(=O)Nc1ccc2cn[nH]c2c1	-21%
COc1ccccc1NC(=O)CSc1nnc(C)n1CCc1ccccc1	2%
Fc1ccc(-c2cc3nc4c(c(N5CCOCC5)n3n2)CCCC4)cc1	464%[activator]
O=C(C1CC1)N1CCN=C1SCc1ccccc1	4%
O=C(Nc1cccc(O)c1)c1cc(S(=O)(=O)N2CCCC2)ccc1Cl	-6%
O=C(Cc1cccs1)NCc1cn2ccccc2n1	32µM*
CC(=O)c1cc(CN2C(=O)CCC2=O)cs1	8%
COc1cc(OC)cc(-n2nnnc2SCC(=O)N2CCCc3ccccc32)c1	4%
OC(CN(c1ccccc1)c1ccccc1)Cn1cnc2ccccc21 (stereo not drawn)	-10%
CCn1c2ccccc2c2cc(NC(=O)CSc3nnnn3-c3ccccc3)ccc21	105%[activator]
COc1ccc(C2N(c3ccc(Cl)cc3)C(=O)C3CCCN32)cc1 (stereo not drawn)	-2%
CN(C)c1ccnc2sc(C(=O)NCc3ccccc3)c(N)c12	-4%
c1ccc(-c2cc(-c3nn4c(-c5ccco5)nnc4s3)c3ccccc3n2)cc1	-20%
CCC(C)NC(=O)CC1Oc2ccc(C)cc2NC1=O (stereo not drawn)	-7%
O=C(COc1ccc2oc(-c3ccccc3)cc(=O)c2c1)NCc1ccco1	10µM*
CCOc1ccccc1CNS(=O)(=O)c1ccc2[nH]c(=O)sc2c1	10%
CCc1ccc2oc(=O)cc(CN3CCN(c4ccc(F)cc4)CC3)c2c1	-6%
Cn1c(=O)[nH]c(=O)c2c1nc(N1CCCCCC1)n2CCN1CCCCCC1	6%
C=CCn1c(C(C)NC(=O)C(C)(C)C)nc2ccccc21 (stereo not drawn)	3%
CCOc1ccc(-n2c(Cc3ccccc3)nnc2SCc2c(C)noc2C)cc1	-7%
CC1(C)S[C@@H]2[C@H](NC(=O)[C@@H](N)c3ccccc3)C(=O)N2[C@H]1C(=O)O[C@H]1OC(=O)c2ccccc21	-1%[25.6 µM]

Taken from above:
HSD17B inh result of O=C(COc1ccc2oc(-c3ccccc3)cc(=O)c2c1)NCc1ccco1 stands at 10µM*
HSD17B inh result of c1ccc(-c2cc(-c3nn4c(-c5ccco5)nnc4s3)c3ccccc3n2)cc1 stands at -20%
HSD17B inh result of CN(C)c1ccnc2sc(C(=O)NCc3ccccc3)c(N)c12 stands at -4%
HSD17B inh result of CC1(C)S[C@@H]2[C@H](NC(=O)[C@@H](N)c3ccccc3)C(=O)N2[C@H]1C(=O)O[C@H]1OC(=O)c2ccccc21 stands at -1%[25.6 µM]
HSD17B inh result of CCOc1ccccc1CNS(=O)(=O)c1ccc2[nH]c(=O)sc2c1 stands at 10%
HSD17B inh result of C=CCn1c(C(C)NC(=O)C(C)(C)C)nc2ccccc21 (stereo not drawn) stands at 3%

The listing continues.
SMILES	HSD17B inh
CCCCSc1nc(C)c(CC(=O)O)c(=O)[nH]1	8%
COC(=O)c1cnn2c(C(F)(F)F)cc(-c3ccco3)nc12	25µM*
O=C(CN1C(=O)COc2ccccc21)NCCC1=CCCCC1	24%
CCOC(=O)c1cnc2c(cnn2CC)c1NN=C(C)C	?
Cc1nc2cnc(N(C)C)nc2n(C2CC2)c1=O	?
c1ccc(-c2nc(N3CCN(c4ccccc4)CC3)nc(-n3ccnc3)n2)cc1	3%
CC(C)(C)NC[C@@H](O)COc1ccccc1C1CCCC1	0%[25.6 µM]
CC1(C)N([O-])C(c2cccs2)=C[N+]1=O	5%
CCCCCCCCCCCCCCC/C=C\[C@H](O)[C@@H](NC(=O)CCCCCCCCCCCCC)OC (tested in a mixture with another compound)	5%
COc1ccccc1N1CCN(CCCCNS(=O)(=O)c2cccc3c(N(C)C)cccc23)CC1	?

An excerpt of these results, as labelled records.
Molecule: CCCCCCCCCCCCCCC/C=C\[C@H](O)[C@@H](NC(=O)CCCCCCCCCCCCC)OC (tested in a mixture with another compound)
  HSD17B inh = 5%

Molecule: CC(C)(C)NC[C@@H](O)COc1ccccc1C1CCCC1
  HSD17B inh = 0%[25.6 µM]

Molecule: O=C(CN1C(=O)COc2ccccc21)NCCC1=CCCCC1
  HSD17B inh = 24%

Molecule: CC1(C)N([O-])C(c2cccs2)=C[N+]1=O
  HSD17B inh = 5%

(cont.)
SMILES	HSD17B inh
CC12CCC(C(=O)N3CCN(C(=O)C45CCC(C)(C(=O)O4)C5(C)C)CC3)(OC1=O)C2(C)C	3%
COC(=O)c1onc(C(=O)c2ccccc2)c1C(=O)OC	0%
CCCOc1cccc(C(=O)O)c1	4%
COc1ccc(C2C3=C(CC(C)(C)CC3=O)Nc3c2c(=O)[nH]c2nc(C)nn32)cc1 (stereo not drawn)	6%
CNc1cc(-c2c(C)noc2C)ncn1	18%
CCC(C)(C)n1nnnc1C(c1ccc2ncccc2c1)N1CCN(Cc2ccc3c(c2)OCO3)CC1 (stereo not drawn)	8%
CC(C)(N)CO[C@H]1C[C@H]2CC[C@@]1(C)C2(C)C	5%[11.4 µM]
COCCn1c(=O)c(-c2ccccc2)nc2cnc(OCc3ccccc3)nc21	?
COc1ccc(-c2nnc(SCC(=O)NC(C)C)n2CC2CCCO2)cc1OC (stereo not drawn)	17%
O=S(=O)(N1CCOCC1)n1c(Cc2ccccc2)nc2ccccc21	-21%
O=C(O)c1ccccc1NCc1ccncc1	32µM*
Cn1cccc1C1(C(F)(F)F)NCCNC1=O (stereo not drawn)	1%
CC(=O)c1cccc(NC(=O)N2CCCC2C(=O)NCc2ccc(F)cc2)c1 (stereo not drawn)	2%
CCOc1ccc(C(=O)Nc2cc(C)on2)cc1OCC	2%
CC(C)OCCCNC(=O)c1cccs1	6%
N#Cc1c(C(F)(F)F)cc(C2CC2)[nH]c1=O	32µM*
O=C(OCN1C(=O)c2ccccc2C1=O)c1cccs1	1%
COC(=O)[C@H](CCSC)NC(=O)NCc1ccccn1	8%
CCOC(=O)N1CCN(C(c2ccc(C(C)C)cc2)c2sc3nc(C)nn3c2O)CC1 (stereo not drawn)	6%
CCOc1ccccc1-n1c(SCC(N)=O)nnc1-c1cccnc1	6%
O=C(O)c1ccc(NC(=O)C2CCCCC2)cc1	-8%
O=C(C1CC(c2ccc(F)cc2)=NO1)N1CCc2ccccc2C1 (stereo not drawn)	-7%
Cc1nc2ccc(S(=O)(=O)NCC(=O)NCCN3CCCCC3C)cc2s1 (stereo not drawn)	7%
COCC(=O)NC1CCN(C(=O)Nc2ccc(Br)cc2)CC1	0%
CC(C)n1ncc(C(N)=O)c1N	6%
CCc1nnc(NC(=O)CSc2nnc(-c3ccco3)n2C)s1	-16%
CC(=O)NCCC(Cc1ccccc1)c1ccco1 (stereo not drawn)	0%
Fc1ccc(Nc2nc(-c3ccoc3)nc3ccccc23)cc1	?
CCOc1ccc(C(=O)Nc2ccncc2)cc1	-5%
Cc1ccc(-n2nnnc2SCc2nnc(-c3ccccc3Br)o2)c(C)c1	-12%
Nc1ncnc2c1ncn2C1CC(O)C(CO)O1 (stereo not drawn)	-7%&-1%
CC(=O)c1cc2c(cc1NC(=O)CN1CCN(c3ccc(F)cc3)CC1)OCO2	-8%
CCn1cc(Br)c(C(=O)N(C)Cc2ccccc2)n1	2%
COc1cc(C(=O)NCc2ccc(-c3nc4ccccc4o3)cc2)cc(OC)c1OC	?
Cc1[nH]c2ccc(Br)cc2c(=O)c1CN1CCCCC1	9%
O=C(N/N=C\c1ccc([N+](=O)[O-])o1)c1ccc(O)cc1	-10%[25.6 µM]
O=C(Nc1nccs1)c1ccc(COc2ccc(Cl)cc2)o1	-8%
Cc1ccc(C2CCN(C(=O)Nc3ccccc3)C2)cc1 (stereo not drawn)	-2%
COC(=O)c1cc(Br)c(=O)n(CCN(C(C)C)C(C)C)c1	4%
O=C(COC(=O)CCc1nc2ccccc2s1)Nc1ccc(S(=O)(=O)N2CCOCC2)cc1	-5%

Reformatted as comma-separated lines: seven of the compounds above.
structure,HSD17B inh
CCn1cc(Br)c(C(=O)N(C)Cc2ccccc2)n1,2%
COc1cc(C(=O)NCc2ccc(-c3nc4ccccc4o3)cc2)cc(OC)c1OC,?
Cc1[nH]c2ccc(Br)cc2c(=O)c1CN1CCCCC1,9%
O=C(N/N=C\c1ccc([N+](=O)[O-])o1)c1ccc(O)cc1,-10%[25.6 µM]
O=C(Nc1nccs1)c1ccc(COc2ccc(Cl)cc2)o1,-8%
Cc1ccc(C2CCN(C(=O)Nc3ccccc3)C2)cc1 (stereo not drawn),-2%
COC(=O)c1cc(Br)c(=O)n(CCN(C(C)C)C(C)C)c1,4%

(further entries)
SMILES	HSD17B inh
CC(=O)Nc1ccc2oc(-c3ccccc3Br)nc2c1	13µM*
CC1(C)Cc2c(sc3c2c(=N)n(Cc2ccco2)c(=O)n3CC(=O)Nc2ccccc2)CO1	?
Cc1nn(-c2nc3ccccc3s2)c(N)c1-c1ccc(Cl)cc1	3%
Cc1nn(Cc2ccc(C(=O)Nc3ccc(C(=O)OC(C)C)cc3)o2)c(C)c1Cl	?
CC1CN(C(=O)CN2C(=O)c3ccccc3S2(=O)=O)CC(C)O1 (stereo not drawn)	14%
O=C(CNC(=O)c1ccco1)Nc1cc(Cl)ccc1N1CCOCC1	-7%
O=C(CSc1ncnc2sc3c(c12)CCCCC3)NCc1ccco1	?
C=C1C2CC[C@@]3(C)C(c4ccoc4)OC(=O)C[C@@]13OC1CC(=O)C(C)(C)C(C(O)C(=O)OC)[C@]12C (stereo partly drawn)	-1%
O=C(CSc1ncnc2c1cnn2-c1ccccc1)Nc1ccccc1	-3%
COC(=O)c1ccc(NC(=O)CN2CCCC2)cc1	10%
COc1ccc(N/C(N)=N/c2nc(CSc3ccc(C)cc3)cc(=O)[nH]2)cc1	-3%
Clc1ccc(Cn2nnc(-c3ccc(CN4CCOCC4)cc3)n2)cc1	-13%
CCc1ccc(C(=O)NC2CCCCC2)s1	-7%
Cc1ccccc1S(=O)(=O)Cc1ccc(C(=O)N2CC(C)CC(C)C2)o1 (stereo not drawn)	5%
CS(=O)(=O)N1CCCC(C(=O)NCc2ccco2)C1 (stereo not drawn)	-22%
CCOC(=O)c1ccc(CNC(=O)c2cc3cccc(OC)c3oc2=O)o1	-2%
CC(C)CNC(=O)c1cccc(NC(=O)c2ccc(NC(=O)c3ccco3)cc2)c1	?
COc1cccc(-n2nnnc2SCC(=O)c2ccc(NC(C)=O)cc2)c1	-4%
CC(=O)Nc1ccc(Cl)c(C(N)=O)c1	12%
Cc1noc(C)c1S(=O)(=O)N(CC(=O)N1CCc2ccccc21)c1ccc(C(C)C)cc1	5%
COc1ccc(Br)cc1S(=O)(=O)N(CC(=O)N1CCOCC1)c1ccccc1	11%
C/C(CC(O)c1ccc2ccccc2n1)=N/O (stereo not drawn)	1%
COCC(=O)Nc1sc2c(c1C(=O)OC)CCCC2	-3%
CCCCn1c(CNC(=O)CC)nc2ccccc21	11%
COc1ncc2nc(-c3cn(C)c4ccccc34)c(=O)n(CCc3ccccc3)c2n1	20%
N#CCc1ccc(NC(=O)Nc2cccc(Cl)c2)cc1	1%
O=C(CN1C(=O)CSc2ccccc21)NCCC1=CCCCC1	12%
N#Cc1cccc(NC(=O)N2CCCC3(CCN(C(=O)c4cccc(F)c4)CC3)C2)c1	5%
O/N=C1\CC/C(=N\O)c2nn(-c3ccccc3Cl)nc21	1%
c1ccc(-c2cc3c(nn2)CCc2nonc2-3)cc1	-2%
c1csc(CNc2ncnc3ccc(-c4ccoc4)cc23)c1	?
O=C(CCSc1ccccc1)N1CCOCC1	10%
COc1ccc(CC(NC(C)=O)C(=O)N2CCN(C(=O)Nc3ccc(Cl)cc3)CC2)cc1OC (stereo not drawn)	-3%
CCOc1ccccc1N(CC(=O)OC)S(C)(=O)=O	3%
COc1ccc(CN(CC(=O)NCC2CCCO2)C(=O)CNS(=O)(=O)c2ccc(C)cc2)cc1 (stereo not drawn)	-4%

Not all compounds are listed; count on the stated rates, not on these rows.
